RecA splice inh – Mtb RecA intein splicing inhibition | P9WHJ3 | inhibition, %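 (about 9 µM by stock and volumes)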 | AID 2221 | cell-free RecA intein splicing, fluorescence | 290,000 tested, 0.75% active; in the data active = inhibition above about 30%; inconclusive = no clear call, values can overlap the other calls;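 also: 0% = vehicle wells and 100% = reference inhibitor control wells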
Target sequence (P9WHJ3 whole entry, looked up, canonical isoform): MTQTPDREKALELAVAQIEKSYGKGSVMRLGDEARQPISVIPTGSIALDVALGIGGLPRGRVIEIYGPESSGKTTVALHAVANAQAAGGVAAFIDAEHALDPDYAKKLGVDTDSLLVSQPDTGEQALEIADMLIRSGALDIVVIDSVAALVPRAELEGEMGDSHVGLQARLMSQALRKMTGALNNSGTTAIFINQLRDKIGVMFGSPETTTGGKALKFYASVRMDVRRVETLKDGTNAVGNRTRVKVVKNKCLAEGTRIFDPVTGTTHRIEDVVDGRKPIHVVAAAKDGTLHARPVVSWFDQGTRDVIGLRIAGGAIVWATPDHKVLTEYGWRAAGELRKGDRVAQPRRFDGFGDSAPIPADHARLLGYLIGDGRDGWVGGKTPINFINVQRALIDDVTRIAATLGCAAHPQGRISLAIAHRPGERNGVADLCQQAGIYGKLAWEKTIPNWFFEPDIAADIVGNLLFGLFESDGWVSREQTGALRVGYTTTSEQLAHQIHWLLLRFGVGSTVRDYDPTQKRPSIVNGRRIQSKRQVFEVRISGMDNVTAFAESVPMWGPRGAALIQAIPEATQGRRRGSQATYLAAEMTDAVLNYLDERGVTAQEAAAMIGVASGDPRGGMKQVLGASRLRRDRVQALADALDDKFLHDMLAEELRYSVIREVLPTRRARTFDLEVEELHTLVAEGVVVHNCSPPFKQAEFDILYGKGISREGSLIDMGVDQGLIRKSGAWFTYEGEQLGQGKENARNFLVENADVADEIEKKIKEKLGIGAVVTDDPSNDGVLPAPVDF
YopH inh – blocks Yersinia enterocolitica YopH tyrosine phosphatase; fluorescence Ex485/Em525; 140,000 tested, 0.16% active; AID 898; inhibition, %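 (about 10 µM by stock and volumes)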;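 active = inhibition of 50% or more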;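 also: controls were vehicle for no effect and minimum signal wells for full effect; inactives centre near -20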
Mtb growth – M. tuberculosis H37Rv growth inhibitors, H37Rv strain (AID 1626). M. tuberculosis H37Rv growth inhibition; higher % means a stronger effect. inhibition, % at 10 µM, or IC50 in µM where a hit was titrated. 220,000 tested, 0.95% active;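 active = confirmed in a dose series; inconclusive = inhibition above 80% but not taken into the dose series; inactive = below 80% or under 30% at every dose of the series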;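 also: bacteria incubated seven days before Alamar blue readout; 0% = bacteria only wells and 100% = bacteria with antibiotic wells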
Mtb bLac sens – beta-lactam sensitization of Mtb H37Rv; M. tuberculosis H37Rv growth with meropenem, percent inhibition; hits of this screen are not shown here; inhibition, % at 25 µM; 330,000 tested, 0.27% active;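 active = about 74% or more and at least 40 points above the plate without the antibiotic, then above 30% in a dose series; inconclusive = first-round hits that could not be retested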;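 also: growth measured after seven days incubation then overnight dye step; 0% = bacteria only wells and 100% = bacteria with antibiotic; twin plates without the antibiotic show which effects depend on it; some results filed as inactive read as strong as hits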
Arbovirus anti – antivirals against arbovirus infection. arbovirus infection cell-based antiviral screen. inhibition, % at 10 µM. 200,000 tested, 0.37% active;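 active = inhibition from about 30%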;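 also: bluetongue infection of BSR cells; cell survival read as ATP light after 72 h; 0% = infected wells without compound and 100% = uninfected wells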
Arbovirus anti repeat – also measured in Arbovirus anti; calls as there; inhibition, %; measured here: 10K subset replicate screen; many hits read low in the repeat;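 first of two repeat runs on a subset; 0% = infected and 100% = uninfected wells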
The depositor's hits bear a star; ? = inconclusive; · = no result given; & = joins results of further samples.

SMILES | RecA splice inh | YopH inh | Mtb growth | Mtb bLac sens | Arbovirus anti | others
Cc1cccn2c(=O)c(/C=C(\C#N)C(N)=O)c(Oc3ccccc3)nc12 | -3.6 | · | 5% | -2 | ·
COc1cc([N+](=O)[O-])ccc1NC(=O)CN1CCc2cc(OC)c(OC)cc2C1 | -5.8 | · | · | 2 | ·
CC(C)(C)c1csc(NC(=O)CSc2nc3ccccc3c(=O)[nH]2)n1 | -0.4 | 5 | 7% | -4 | 20
Cc1ccc(N/C(CSC(N)=O)=N/S(=O)(=O)c2ccccc2)cc1 | -1.0 | -5 | -1% | -4 | -1
CC(C)(C)c1cc(-c2n[nH]c(=S)n2-c2ccccc2F)n[nH]1 | 0.6 | · | -5% | -5 | ·
CCc1nn2c(NCCCO)cc(C)nc2c1-c1ccc(F)cc1 | -1.2 | · | · | 7 | ·
COCON1C(=O)CN(C(C)=O)C1c1ccc(Cl)cc1Cl (centres undefined) | -2.6 | -24 | 5% | -9 | 7
Cc1nn(C(C)C(=O)NC2CCCCC2)c(=O)c2nn(-c3ccccc3)c(C)c12 (centres undefined) | -1.8 | · | · | -2 | ·
COc1ccccc1N1CCN(c2ncnc3sc(C(=O)NCC4CCCO4)c(C)c23)CC1 (centres undefined) | -2.2 | · | · | 6 | ·
COc1cccc(NC(=O)Cn2cc3c(n2)CCCCC3)c1 | 1.6 | -43 | -13% | ? | -3 | Arbovirus anti repeat=2
Cc1ccccc1OCCC(=O)OCC(=O)NC1CCCC1 | 0.4 | · | · | 0 | ·
O=c1c(-c2ccccc2)c1-c1ccccc1 | 1.9 | · | 36%&42% | · | -22
Cc1nn2c(-c3ccccc3)c(-c3ccccc3)nc2[nH]c1=O | -4.1 | -33 | -10% | -4 | 32*
CN(C)CCSc1nnc2[nH]c3ccccc3c2n1 | 32* | -28 | -2% | -5 | -9
CCn1c(=O)cc(N2CCN(Cc3ccccc3)CC2)[nH]c1=O | -0.9 | · | · | -5 | ·

Entries from the list above containing two or more sulfur atoms:
SMILES | RecA splice inh | YopH inh | Mtb growth | Mtb bLac sens | Arbovirus anti | others
CC(C)(C)c1csc(NC(=O)CSc2nc3ccccc3c(=O)[nH]2)n1 | -0.4 | 5 | 7% | -4 | 20
Cc1ccc(N/C(CSC(N)=O)=N/S(=O)(=O)c2ccccc2)cc1 | -1.0 | -5 | -1% | -4 | -1

Later entries:
SMILES | RecA splice inh | YopH inh | Mtb growth | Mtb bLac sens | Arbovirus anti | others
Cc1cccc(CCNS(=O)(=O)c2ccc(S(=O)(=O)N3CCC(C)CC3)cc2)c1 | 1.9 | -20 | 1% | 1 | ·
CC(C)Cn1cnc2c1c(=O)n(CC(=O)Nc1ccc3c(c1)OCO3)c(=O)n2Cc1ccccc1 | · | 5 | 1% | 3 | -7
COc1ccc(CNCCC(c2ccc(F)cc2)c2ccc(OC(C)C)cc2)cc1OC (centres undefined) | 3.9 | · | 15µM* | 97 | ·
O=C(NC12CC3CC(CC(C3)C1)C2)OCCNC1CCCCC1 | 0.3 | · | 14% | 0 | ·
Cc1cc(C)n(C(=O)CNC(=O)/C=C/c2ccccc2)n1 | 2.6 | · | -3% | -8 | 5
Cc1cc(Cl)ccc1C(=O)C1CCCN(C(=O)c2ccc3ncccc3c2)C1 (centres undefined) | 3.6 | · | -6% | 2 | 23
CCN(C(=O)CSc1nnc(-c2ccccc2)n1C)C1CCS(=O)(=O)C1 (centres undefined) | -3.1 | · | -5% | -7 | 2
O=C(O)c1ccc(/C=N/n2c(C3CCCCC3)n[nH]c2=S)cc1 | 0.1 | · | · | -4 | ·
COCC(C)NC(=O)C1CCN(S(=O)(=O)c2ccc3ccccc3c2)CC1 (centres undefined) | 6.4 | · | · | -3 | ·
COc1ccc(NC(=O)CN2CCCN(S(=O)(=O)c3ccc(F)cc3)CC2)c(OC)c1 | -0.4 | · | -7% | 3 | 7
COC(=O)c1ccccc1NC(=O)N1CCN(S(C)(=O)=O)CC1 | -0.4 | · | -4% | -1 | 2
COc1cc(OC)c2c(=O)cc(-c3ccccc3)oc2c1 | 0.9 | · | · | 7 | -12
Cc1ccc(S(=O)(=O)NCC(=O)NC2CCCCCC2)cc1 | 9.5 | -16 | -4% | 0 | 6
CCCN1CCC(NC(=O)C2CCCCC2C(=O)O)CC1 (centres undefined) | 0.3 | · | · | -6 | ·
CC(=O)Nc1ccc(S(=O)(=O)NCCCN2CCOCC2)cc1 | 1.9 | · | · | -3 | ·
Cc1ccc(NC(=O)CN2CCc3ccccc3C2)cc1C | 9.7 | · | · | -2 | ·
N#Cc1c(N)nc2c(c1-c1ccc(Br)s1)CCCC2 | 0.0 | -15 | 1% | 2 | -3
CCOc1cc(CNCc2ccc3c(c2)OCO3)ccc1OC | 0.3 | · | · | -3 | ·
Fc1ccc(CN2CCCCCCC2)cc1F | -1.9 | -41 | -2% | -15 | 2 | Arbovirus anti repeat=2
O=[N+]([O-])c1cccc(S(=O)(=O)NCC2CC3CCC2C3)c1 (centres undefined) | -6.6 | · | · | -7 | ·
O=C(N/N=C/c1cc([N+](=O)[O-])ccc1O)NC12CC3CC(CC(C3)C1)C2 | 1.9 | -20 | 6% | 57 | -14
COC(=O)CCCC1=CC2=C(c3ccccc3)C(=O)C(C)(OC(=O)C3CCCC3)C(=O)C2=CN1C1CC1 (centres undefined) | 17 | · | -4% | -2 | ·
COc1ccc(CN2C(=O)c3cccnc3C2=O)cc1S(=O)(=O)NCc1ccco1 | 0.1 | · | · | -2 | ·
CCn1cc(/C=C(/C#N)S(=O)(=O)c2ccccc2)cn1 | -3.3 | -16 | -7% | -6 | 5
COc1ccc(S(=O)(=O)NC2CC3CCC2C3)cc1Br (centres undefined) | 2.0 | · | · | -6 | ·
O=C(O)c1ccc(N=Cc2c(O)ccc3ccccc23)cc1 | -1.4 | · | · | 7 | ·
COc1cc(NS(=O)(=O)c2ccc(NC(=S)NC(=O)/C=C/c3ccc(OC)c(OC)c3)cc2)ncn1 | 2.7 | · | 5% | -4 | 4
COc1ccccc1/C=C1\SC(=O)N(CCC(=O)N2CCCCC2CCO)C1=O (centres undefined) | 0.8 | · | · | -3 | ·
Cc1cccc(OCC(O)CN2CCc3ccccc3C2)c1 (centres undefined) | 2.3 | · | · | 8 | ·
Cc1ccc2c(c1)C(=O)CC1(CCC(C(C)(C)C)CC1)O2 (centres undefined) | 5.4 | · | -2% | 0 | ·
O=P(Cc1ccccc1O)(c1ccccc1)c1ccccc1 | 0.7 | -12 | 0% | -4 | 5
Cc1cc(C(C)(C)C)oc1C(=O)O | -0.6 | · | -4% | 9 | 2
Cc1ccc(NC(=O)CN(C)S(=O)(=O)c2cccs2)cc1C | 0.1 | 12 | -8% | 3 | -2
O=C(COC(=O)c1cccs1)NCc1ccccc1 | 3.3 | -46 | 1% | -8 | -1
COc1ccc(Cl)cc1NC(=O)CN(C1CCCCC1)S(C)(=O)=O | 3.1 | -3 | -4% | 5 | 1
C=C(C)CSc1nc2sc3c(c2c(=O)n1-c1ccc(OC)cc1)CCN(C)C3 | 2.8 | · | · | 17 | ·
O=C1CC(C(=O)O)S/C(=N\N=C\c2ccc(Br)cc2)N1 (centres undefined) | 0.3 | · | -6% | -3 | ·
CC(C)(C)c1cc(NC(=O)c2cccs2)no1 | -3.3 | · | · | -11 | ·
CSCC[C@H](NC(=O)OC(C)(C)C)C(=O)N/N=C/c1c(C)[nH]c(=O)[nH]c1=O | -4.1 | -14 | · | -4 | 1
COc1ccc(NS(=O)(=O)c2cc(NC(=O)Cc3cccs3)ccc2C)cc1 | 6.1 | -26 | 3% | 1 | -6
Cc1ccc(C)c(OCCC(=O)NNC(=O)Cn2nc(C)cc2C)c1 | -0.7 | · | · | -12 | ·
O=C(CNC(=O)c1ccco1)Nc1ccc(F)cc1 | -0.9 | · | 1% | -1 | 2
Cc1ccc(/C=N/N2CCN(c3ccccn3)CC2)o1 | -0.5 | · | -10% | -10 | ·
COCCNC(=O)C(c1ccc(OC)cc1)N(C(=O)Cn1nnc2ccccc21)c1cccnc1 (centres undefined) | -4.3 | · | -3% | -10 | 8
COc1ccccc1N1C(=O)CC(N2CCN(c3ccc([N+](=O)[O-])cc3)CC2)C1=O (centres undefined) | 0.6 | · | · | 4 | ·

Arranged by length of the SMILES (smallest number first): part of the list above.
SMILES | RecA splice inh | YopH inh | Mtb growth | Mtb bLac sens | Arbovirus anti | others
Cc1cc(C(C)(C)C)oc1C(=O)O | -0.6 | · | -4% | 9 | 2
CC(C)(C)c1cc(NC(=O)c2cccs2)no1 | -3.3 | · | · | -11 | ·
Cc1ccc(/C=N/N2CCN(c3ccccn3)CC2)o1 | -0.5 | · | -10% | -10 | ·
COc1ccccc1N1C(=O)CC(N2CCN(c3ccc([N+](=O)[O-])cc3)CC2)C1=O (centres undefined) | 0.6 | · | · | 4 | ·
CSCC[C@H](NC(=O)OC(C)(C)C)C(=O)N/N=C/c1c(C)[nH]c(=O)[nH]c1=O | -4.1 | -14 | · | -4 | 1

(continued)
SMILES | RecA splice inh | YopH inh | Mtb growth | Mtb bLac sens | Arbovirus anti | others
N#Cc1nc(COc2ccccc2F)oc1NCCc1ccccc1 | 6.5 | 1 | · | 2 | 6
Cc1nc(CN2CCN(C(=O)NC3(c4ccccc4)CC3)CC2)cs1 | -2.1 | 2 | 6% | -1 | 6
CC(=O)c1cccc(NC(=O)c2cnn3ccccc23)c1 | 1.2 | · | 3% | -1 | -4 | Arbovirus anti repeat=0
COc1ccc(CCNC(=S)Nc2ccc(C)cc2C)cc1 | 1.3 | -4 | 6% | -5 | 0
CN(C)/C=C1\C(=O)N(c2ccc([N+](=O)[O-])cc2)N=C1c1ccccc1 | 6.7 | -32 | -5% | 8 | 12
C#CCOCCOCCOCCNc1nc(N2CCN(C(=O)C(CCC(=O)O)n3cc(C(N)CC(C)C)nn3)CC2)nc(N2CCN(C(=O)C(Cc3cc4ccccc4[nH]3)n3cc(C(N)Cc4ccc(O)cc4)nn3)CC2)n1 (centres undefined) | -0.5 | · | · | -7 | -3
Cc1cc2c(cc(C(=O)OCC(=O)NCc3cccs3)n2C(C)C)o1 | 3.2 | 22 | -3% | -4 | -18
Nc1nonc1-n1nnc(C(=O)N/N=C/c2ccccc2Cl)c1COc1ccc(F)cc1 | -0.7 | · | · | -3 | ·
CC(C)N=C(NS(=O)(=O)NC(=O)c1ccccc1)c1ccccc1 | -4.3 | · | 6% | -8 | 5
CCNCC(=O)Nc1ccc(N2CCOCC2)cc1 | -2.9 | · | 0% | 3 | 4
O=C(OCC(=O)N1CCOCC1)c1c(Cl)ccc(Cl)c1Cl | 1.2 | · | -4% | -4 | 3
Cc1ccc(NC(=O)CN(C)C(=O)CNC(=O)c2cccs2)cc1 | 0.9 | · | · | -2 | ·
Cc1ccc(S(=O)(=O)N2CCN(C(=O)c3c(-c4ccccc4)noc3C)CC2)c(C)c1 | -0.4 | · | · | 5 | ·
COc1ccc(-c2cc(=O)oc3c(C)c(OCC(=O)NCC4CCC(C(=O)O)CC4)ccc23)cc1 (centres undefined) | 11 | · | · | -1 | ·
Cc1ccc(OCCn2nc3ccccc3n2)c(C)c1 | -2.1 | 6 | -7% | -3 | -8
O=C(NCCCNC(=O)c1ccccc1Cl)c1cnccn1 | -1.1 | · | · | -6 | ·
CC1CC(C)CN(CCC(=O)Nc2ccc3c(c2)CCC3)C1 (centres undefined) | -1.5 | · | 5% | -8 | -1
CCCC(=O)Nc1nnc(/C=C/c2ccc(OC)cc2)s1 | 0.8 | · | · | -9 | ·
COc1ccc(CCN(C)C(=O)c2c(C)nn(-c3ccccc3)c2C)cc1OC | -0.6 | · | · | 2 | ·
CCCCCCCCC(=O)N/N=C/c1cccc(Br)c1 | -0.1 | -17 | 13% | 12 | 5
O=C(Cn1c2[n+](c3ccc(C(F)(F)F)cc31)CCCCC2)c1cccc([N+](=O)[O-])c1 | -0.4 | · | -6% | -2 | 14
Cc1cc(C(=O)CN2C(=O)NC3(CCCCC3)C2=O)c(C)n1Cc1ccco1 | 1.0 | · | 0% | -10 | 2
CCCCNC(=O)Cn1cnc2ccc(S(=O)(=O)N3CCC(C)CC3)cc2c1=O | -3.6 | · | -2% | -5 | 4
COc1ccc(C(=O)NN(C)c2nc(C(F)(F)F)nc3ccccc23)cc1 | 1.5 | · | 0% | 3 | -7
CCOC(=O)COc1ncn(-c2ccccc2)n1 | 0.7 | -55 | -3% | 5 | 2
CC1CCN(S(=O)(=O)c2cn(CC(=O)Nc3cccc(C#N)c3)cn2)CC1 | -1.6 | · | · | 3 | ·
Fc1ccc(Nc2nc(-c3ccncc3)nc3ccccc23)cc1F | 1.2 | -12 | 9% | -13 | 9
CC1CC(C(F)F)n2nc(C(=O)Nc3sc4c(c3C#N)CCC(C(C)(C)C)C4)nc2N1 (centres undefined) | -1.2 | 17 | 3% | 7 | 3

An excerpt; the hit share may differ from the screen's.
